Assay outcomes as filed in PubChem.
AmpC nodet inh: inhibitors of E. coli AmpC beta-lactamase without detergent; P00811; AmpC nitrocefin hydrolysis, absorbance 480 nm, no detergent; potencies from a single point are estimates; Potency, µM (doses to about 28.7 µM), without a hit: at the top dose activity change, negative = inhibition; 1.8% of 71,000 active; AID 585; active = falling curve, for most hits resting on a single point; inconclusive = weak or doubtful change; inactive = flat or rising curve; also: % of control where 0% means no effect; about half of the hits show no inhibition at the top dose; a quarter of the inactives give rising signals
Target sequence (P00811 whole entry, looked up): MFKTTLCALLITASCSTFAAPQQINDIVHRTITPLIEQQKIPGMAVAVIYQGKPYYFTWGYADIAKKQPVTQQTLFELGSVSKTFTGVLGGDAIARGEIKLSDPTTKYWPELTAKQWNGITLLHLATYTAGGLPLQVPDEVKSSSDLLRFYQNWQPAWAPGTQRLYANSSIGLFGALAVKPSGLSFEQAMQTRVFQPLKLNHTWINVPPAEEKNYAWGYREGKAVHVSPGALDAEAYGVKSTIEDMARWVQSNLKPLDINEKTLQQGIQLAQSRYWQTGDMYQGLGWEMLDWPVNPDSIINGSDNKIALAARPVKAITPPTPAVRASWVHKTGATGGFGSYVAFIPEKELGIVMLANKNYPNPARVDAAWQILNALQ
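AmpC, 20 mM phosphate pH 7.0; 15 min cpd preinc, RT; start with nitrocefin (800 uM stock); A480 kinetic read, 20 s intervals, 4 min. No-enzyme wells = negative control.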
* hit, by the source's call; & = joins results of further samples; [ ] = remark or other dose. Potency is read from the fitted curve at half-maximal effect.

compound | AmpC nodet inh
COC(=O)C1=CN(C)C=C(C(=O)OC)C1c1ccc(O)c(OC)c1 | 11%
Cn1cc(S(=O)(=O)N2CCc3ccccc3C2)c(=O)n(C)c1=O | 8%
CCN(CC)S(=O)(=O)c1cc(C(=O)Nc2nncs2)c(Cl)cc1Cl | -15%
O=C1NCCCC1C(=O)Nc1cccc(C(F)(F)F)c1 (stereo not drawn) | 5%
O=C(Nc1ccccc1C(=O)NCC1CCCO1)c1ccco1 (stereo not drawn) | -5%
O=C(COc1nnnc2ccccc12)N1CCCc2ccccc21 | 8%
Cc1ccc(S(=O)(=O)NCCCCC(NC(=O)OC(C)(C)C)C(=O)O)cc1 (stereo not drawn) (tested in a mixture with another compound) | 7%
CCOC(=O)N1CCN(CCC(=O)Nc2ccc(OC)cc2)CC1 | -6%
CCn1c(=O)n(CC)c2cc(S(=O)(=O)NCCOc3ccccc3)c(C)cc21 | 16%
COc1ccc(C2(O)CCN(C(=O)c3c(F)cccc3F)CC2)cc1 | 12%
O=Nc1ccc(Nc2ccccc2)cc1 | 6%
CCC1CCCCN1C(=O)N[C@@H](Cc1ccccc1)C(=O)O (stereo partly drawn) | 5%
COc1ccc(Oc2ncc3nc(-c4cc(F)cc(F)c4)c(=O)n(CCC#N)c3n2)cc1 | -5%
CCOC(=O)N1CCN(C(=O)CSc2nnc(-c3ccc(Cl)s3)o2)CC1 | 25%
Cc1[nH]nc2c1/C(=N\O)CC(C)(C)C2 | 10%
Nc1nnc(-c2ccncc2)s1 | -4%
CCOC(=O)N1CCN(C(=O)CN(C)S(=O)(=O)c2ccc3c(c2)C(C)(C)C(=O)N3C)CC1 | 28%
Cc1ccc(C(=O)NC2CC(C)(C)NC(C)(C)C2)cc1C | 4%
O=C(CCN1C(=O)COc2ccccc21)NCCN1CCN(c2ccccc2F)CC1 | 53%
c1ccc(-c2cc3c(ccc4nonc43)nn2)cc1 | -12%
Nc1ccc(-c2n[nH]c(=O)c3ccccc23)cc1N | -8%
COc1ccc(-c2c3c(=O)n(C)c(=O)n(C)c3c3nnc4ccccc4n23)cc1 | 11%
COc1cccc(C2=NOC(C(=O)Nc3ccc(C(C)=O)cc3)C2)c1 (stereo not drawn) | 17%
COc1ccc(CCNC(=O)c2ccc3c(c2)NC(=O)C(N2CCOCC2)S3)cc1OC (stereo not drawn) | 44%

Gathered by group, the entries above with fluorine
compound | AmpC nodet inh
O=C1NCCCC1C(=O)Nc1cccc(C(F)(F)F)c1 (stereo not drawn) | 5%
COc1ccc(C2(O)CCN(C(=O)c3c(F)cccc3F)CC2)cc1 | 12%
COc1ccc(Oc2ncc3nc(-c4cc(F)cc(F)c4)c(=O)n(CCC#N)c3n2)cc1 | -5%
O=C(CCN1C(=O)COc2ccccc21)NCCN1CCN(c2ccccc2F)CC1 | 53%

(cont.)
compound | AmpC nodet inh
O=C1c2ccccc2C(=O)N1CCCCN(C(=O)c1ccco1)c1ccc(Cl)cc1 | 75%
COc1ccc(OC)c(NC(=O)CSCC(=O)O)c1 | -2%
O=C(Oc1ccccc1)N1CCC2(CCN(Cc3ccncc3)CC2)CC1 | 31%
CCOC(=O)c1cn[nH]c1N | 4%
CC(=O)NC1C(=O)N=C(SCC(=O)NC2CCCCC2)NC1=O (stereo not drawn) | -13%
CCOC(=O)C1CCCN(Cc2ccc(OC)cc2OC)C1 (stereo not drawn) | -10%
Cc1cccc(N2C(=O)SC(N(C)c3ccccc3)C2=O)c1 (stereo not drawn) | -16%
CCSc1nc(-c2ccccc2)c(C#N)c(=O)[nH]1 | -11%
C=CCSc1nc2c(c(=O)[nH]c(=O)n2C)n1C(C)C | -5%
COc1ccc(C2CC(=O)N3CN(Cc4ccco4)CSC3=C2C#N)cc1 (stereo not drawn) | -4%
COC(=O)N1CCC2(CCCN(c3ccncc3)C2)CC1 | 3%
COc1ccccc1C1N(c2cc(Cl)ccc2OC)C(=O)C2CCCN21 (stereo not drawn) | 82%
CCOC(=O)N1CCN(c2c(NCc3ccccn3)c(=O)c2=O)CC1 | 4µM*[single pt active]
CCOC(=O)c1ccc(NC(=O)CCNc2c(N3CCCC3)c(=O)c2=O)cc1 | -1%
c1ccc(-n2nnnc2SCc2cn3cccnc3n2)cc1 | -3%
O=C(Nc1ccccc1C(=O)N1CCCCC1)c1cccc(S(=O)(=O)N2CCOCC2)c1 | 22%
COc1ccc(-n2ccnc2SCC(=O)NCc2ccc3c(c2)OCO3)cc1 | 9%
COc1cc(OC)cc(-c2nc(-c3ccccc3OC)no2)c1 | 38%
Cc1cc(C)c2cc(CN(Cc3nnnn3C3CCCCC3)CC3CCCO3)c(=O)[nH]c2c1 (stereo not drawn) | 112%
Cc1cc(C(=O)NCc2ccccc2)no1 | -8%
CCN1C(=O)/C(=C/N(C)c2ccccc2)OC1=S | -2%
CCOC(=O)N/C(N)=N/c1nc2ccccc2s1 | 5%
Cc1cccc(NC(=O)Nc2cccc(C#N)c2)n1 | 1%
CC(C)CC(NC(=O)C1CCCN1C(=O)OC(C)(C)C)C(=O)NCC(N)=O (stereo not drawn) | -3%
CC(=O)Nc1ccc(OC(=O)N(C)c2ccccc2)cc1 | 20%
CN1CCN(/C=C2\SC(=S)NC2=O)CC1 | 2%
c1cncc(-c2nc3c4ccccc4nc(N4CCC(N5CCCCC5)CC4)n3n2)c1 | 11%
Cc1ccccc1CS(=O)(=O)CCC(=O)NCCCN1CCOCC1 | -6%
O=C(Nc1cc(Cl)ccc1Cl)c1noc2c1CCCC2 | 4µM*[single pt active]
O=C(CN1CCOCC1)Nc1ccc(Br)cn1 | -5%
OC(COCc1ccco1)CN1CCN(C(c2ccccc2)c2ccccc2)CC1 (stereo not drawn) | 73%
CCCCn1c(O)c(C(C)=NCCN2CCCCC2)c(=O)[nH]c1=O | -3%
CCOC(=O)Cc1csc(NC(=O)CN(C)S(=O)(=O)c2cccc3cccnc23)n1 | 23%
COc1cccc(C2Nc3ccccc3C(=O)N2O)c1O (stereo not drawn) | -4%
O=C(NCc1cccs1)c1noc2c1CCCCC2 | -12%
CCOc1ccc2nc(NS(C)(=O)=O)sc2c1 | -4%

Carrying on:
Compound,AmpC nodet inh
O=c1c2ccccc2n(Cc2cccc(F)c2)c(=O)n1C1CCCC1,6%
Cc1ccc2nsnc2c1S(=O)(=O)NCc1ccncc1,-8%
COC(=O)CCC/C=C1/SCC(NC(=O)c2ccccc2)C1O (stereo not drawn),-4%
C#CCCCCCCCCCCCCCCCC(=O)O,2%
CCOC(=O)Nc1cc(=O)c2ccccc2o1,-4%
C[C@]1(C(=O)O)[C@@H]2CC[C@@H](O2)[C@@]1(C)C(=O)O,1%
COC(=O)COc1ccc(S(=O)(=O)Nc2ccccc2SC)cc1,-5%
Cc1ccc(-c2nn3c(C)nnc3s2)cc1NC(=O)c1ccc(-c2ccc(Cl)cc2Cl)o1,61%
C=CCn1c(NCCOC)nc2c1c(=O)n(C)c(=O)n2C,0%
Cc1ccc(C)c(N(CC(=O)N(C)C)S(C)(=O)=O)c1,10%
CCC(C(=O)N1CCc2cc(OC)c(OC)cc2C1)c1ccccc1 (stereo not drawn),10%
CCOc1cc(NC(=O)c2ccco2)c(OCC)cc1NC(=O)CCC(=O)NCc1cccnc1,94%
Cn1nc(-c2ccc(Cl)cc2)c2cc(C(=O)N3CCN(C(=O)c4ccco4)CC3)sc21,4µM*[single pt active]
COC(=O)Nc1ccc2c(c1)ncn2C1CCCCC1,6%
CC(NC(=O)OC(C)(C)C)C(=O)N1CCCC1C(=O)NC(Cc1ccccc1)C(N)=O (stereo not drawn),11%
COc1ccc(N2CCN(Cc3nc(N)nc(Nc4ccccc4OC)n3)CC2)cc1,77%
CCOC(=O)N1CCN(C(=O)C2CCC(C(=O)N3CCN(C(=O)OCC)CC3)CC2)CC1 (stereo not drawn),-2%
CC(=O)c1c(N2CCN(c3ccccc3)CC2)nc(=S)n(-c2ccccc2)c1C,53%
Cc1ccnc2c(N3C(=O)C4C5C=CC(C5)C4(C)C3=O)cccc12 (stereo not drawn),17%
O=C(CCCC(=O)N(CC(=O)NC1CCCC1)Cc1ccc(F)cc1)Nc1ccccn1,24%
COC(=O)C1=C(C)N(c2cccc(C(C)=O)c2)C(=O)C1,-2%
COc1ccc(NC(C)=O)cc1NC(=O)CSc1nc2ncccc2[nH]1,-10%
Cn1c(Cn2cnc3ccccc32)nnc1SCC(=O)CC(=O)Nc1ccccc1,16%
Cc1csc(NC(=O)C2CCCN2C(=O)OCC(C)C)n1 (stereo not drawn),4%
c1ccc2c(c1)-c1cccc3c1c-2cc1ccccc13,-8%
O=C(c1ccccc1)N1CCN(c2ccccc2F)CC1,20%
O=C(Cn1cnc2c(cnn2-c2ccccc2Cl)c1=O)N1CCc2ccccc21,49%
O=C(OCc1ccccc1F)c1ccc2c(c1)OCCO2,-1%
O=S(=O)(Nc1cccc(C(F)(F)F)c1)c1cccnc1,12%
O=C1C=CC(=O)C=C1,-13%&6%
Cc1cccc(-n2c(N)cc(=O)[nH]c2=S)c1,-13%
COc1ccc2c(=O)cc(-c3ccc(O)cc3)oc2c1,-8%
COC(=O)C1CCN(C(=O)c2ccccc2NC(C)=O)CC1,12%
Cc1ccc(C(c2nnnn2CC2CCCO2)N2CCN(c3cccc(C)c3C)CC2)cc1 (stereo not drawn),76%
CCN1CCN(c2cc(=O)n(C3CCCCC3)c(=O)[nH]2)CC1,10%
Cn1cnc2c1c(=O)n(Cc1cccc(Br)c1)c(=O)n2C,43%
c1cncc(CNc2ncnc3ccc(-c4cccnc4)cc23)c1,-8%
Cn1c(C(=O)N2CCN(Cc3ccccc3)CC2)cc2c(=O)n(C)c3ccccc3c21,148%
Cc1cc(NCc2ccccc2Cl)n2nnnc2n1,-8%
CCC(=O)N(Cc1cc2c(C)cc(C)cc2[nH]c1=O)C1CCCCC1,59%

The last three entries of the section before open the next one:
Compound,AmpC nodet inh
Cn1c(C(=O)N2CCN(Cc3ccccc3)CC2)cc2c(=O)n(C)c3ccccc3c21,148%
Cc1cc(NCc2ccccc2Cl)n2nnnc2n1,-8%
CCC(=O)N(Cc1cc2c(C)cc(C)cc2[nH]c1=O)C1CCCCC1,59%
Nc1nc(-c2ccc(Br)s2)c(Br)s1,-5%
Cc1csc(C2=C(O)CN(CCc3ccccc3)C2=N)n1,-13%
Cc1ccc(C(=O)Oc2ccc3c(c2)ncn3C)cc1,40%
CC(C)N(C(=O)CSc1nn2c(=O)c(C(C)(C)C)nnc2s1)c1ccccc1,77%
Oc1[nH]c2ccccc2c1OCc1ccncc1,-14%
O=C1CCn2nc(-c3ccc(Cl)cc3)cc2N1,4µM*[single pt active]
CCn1c(CCCNC(=O)c2cccs2)nc2ccccc21,15%
CCn1c(COc2ccc3c(c2)CCCC3)nnc1SCC(=O)Nc1nccs1,0%
O=C(O)c1c(F)c(F)cc2ccccc12,-9%
Clc1ccc(Nc2nc(NCCN3CCOCC3)nc(N3CCOCC3)n2)cc1,132%
COC(=O)c1ccc(C(NC(=O)OCc2ccccc2)/C(=C/[C@@H](C)C(=O)NCc2ccc(C)o2)c2cccnc2)cc1 (stereo partly drawn),54%
Cc1cc(=O)[nH]c(=S)[nH]1,-3%
CC1CCN(c2nc3c(c(=O)[nH]c(=O)n3C)n2Cc2ccccc2Cl)CC1,23%
Cn1c(=O)[nH]c(=O)c2c1nc(N1CCOCC1)n2CC(O)COc1ccc2ccccc2c1 (stereo not drawn),110%
O=C(NCNC(=O)N[C@H]1C(=O)NC(=O)N1CO)N[C@H]1C(=O)NC(=O)N1CO,-7%[12.8 µM]
O=c1c2nnn(Cc3ccccc3)c2ncn1C/C=C/c1ccccc1,10%
COc1ccc(-c2nc3cnc(N4CCN(C)CC4)nc3n(C)c2=O)cc1,78%
COc1ccc(S(=O)(=O)N2CCN(C(=O)c3cccs3)CC2)cc1OC,-4%
COc1ccc2c(-c3ccccc3)cc(N3CCOCC3)nc2c1,126%
Cc1cc(C(=O)O)sc1C,-5%

Another view of some results above.
compound: COC(=O)COc1ccc(S(=O)(=O)Nc2ccccc2SC)cc1
  AmpC nodet inh: -5%
compound: Oc1[nH]c2ccccc2c1OCc1ccncc1
  AmpC nodet inh: -14%
compound: C=CCn1c(NCCOC)nc2c1c(=O)n(C)c(=O)n2C
  AmpC nodet inh: 0%
compound: Cc1[nH]nc2c1/C(=N\O)CC(C)(C)C2
  AmpC nodet inh: 10%

(list continues)
Compound,AmpC nodet inh
CN(C)c1ccc(C(=S)N2CCOCC2)cc1Br,22%
NC(=O)c1cccc(N)c1,-7%&-4%
O=C(Nc1nc2ccccc2[nH]1)C1CC(=O)N(c2ccc3c(c2)OCCO3)C1 (stereo not drawn),14%
COc1ccc2nc(SCC(N)=O)[nH]c2c1,1%
CCn1cc(Br)c(C(=O)Nc2ccc(F)c(Cl)c2)n1,-13%
Cc1cc(C)cc(OCCCC(=O)O)c1,-4%
COC(=O)c1ccccc1S(=O)(=O)N(CCCN1CCOCC1)Cc1cccs1,32%
O=C(Nc1ccc2c(c1)oc1ccccc12)c1cccnc1,2%
CC(C)c1[nH]nc2c1C(c1ccc(OC(=O)c3ccco3)cc1)C(C#N)=C(N)O2 (stereo not drawn),6%
O=c1[nH]c(=O)n(C2CCCCCC2)c(O)c1C=NCCCN1CCOCC1,24%
Cc1ccc(C(=O)NCCNC(=O)CN2CCCC2)cc1,5%
O=C(NC1CCCC1)C1CC(=O)N(CCc2ccccc2)C1 (stereo not drawn),-5%
O=C(Nc1ccc2c(c1)OCO2)Nc1ccc(Br)cn1,-22%

Only part of the results is shown; rates above refer to the full screens.
